StopGo reporter: FMDV 2A StopGo reporter, luciferase signal | human cells with a luciferase reporter of 2A StopGo recoding; control for the full effect not named in the record | Potency, µM (titrated, usually from 57.9 µM), without a hit: at the highest dose signal change, negative = less light | 410,000 compounds, 1.2% hits; active = well fitted falling curve with a large enough effect; inconclusive = small, poorly fitted or top-dose-only effect; inactive = no such curve, though single readings can be large or run the other way; tested in HEK293T cells; note: nearly all actives have a fitted effect of over 45% in size; luciferase light after 4 h
RE007 growth inh: less growth of the S. pombe RE007 Vpr strain. 360,000 compounds, 0.21% hits. S. pombe RE007 Vpr strain, BacTiter-Glo ATP luminescence, 24 h; control for the full effect not named in the record. AID 651644. Potency, µM (series often up to 92.2 µM), inactives show top-dose activity change, negative = less growth; active = well fitted falling curve with a large enough effect; inconclusive = small, poorly fitted or top-dose-only effect; inactive = no such curve, though single readings can be large or run the other way;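 note: nearly all actives have a fitted effect of over 50% in size; the assay follows cell death caused by Vpr and the record does not say whether a fall means rescue or toxicity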
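Fission yeast strain RE007, carrying one chromosomally integrated HIV-1 vpr copy, was seeded at OD 0.01 in PMG+AL medium with 23 nL pinned compound. After 24 h at 30 °C and 99% humidity, viability was read by BacTiter-Glo luminescence.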
* marks the source's active call; other numbers are inactive results; ? = inconclusive; [ ] = remark or other dose. % is set by controls: 0 for no effect and ±100 for the full control effect; potency is the fitted concentration of half-maximal effect. Only part of the results is shown. The share of hits here may be higher or lower than overall.

Values run as follows: RE007 growth inh	StopGo reporter
> O=[N+]([O-])/C=C\c1ccc(N2CCOCC2)cc1
  ?	18µM*
> CC#CCN1c2ccccc2[C@]23C[C@@H](C(=O)OC)N(C(=O)NC(C)(C)C)C2=NC(C(=O)OC)=C(C(=O)OC)[C@H]13
  -6%	-13%
> CCOC(=O)/C=C/c1cc(F)ccc1O
  -16%	22%
> O=c1c(-c2cccnc2)nc2ccccc2n1C(c1ccccn1)c1nc2ccccc2[nH]1 (configuration not stated)
  -11%	20%
> Cc1cccc(C)c1NC(=O)C(c1ccnc2ccccc12)N1CCN(C)CC1 (configuration not stated)
  -2%	-5%
> Cc1nc2c(OCc3cccc(Cl)c3)cccn2c1N(C)CC1CC1
  -19%	?
> CC(=O)Nc1ccc(-c2ccnc3c2CC(C)(C(=O)Nc2ccc(F)c(Cl)c2)O3)cc1 (configuration not stated)
  2%	-22%
> COC1=C(Br)C(=O)c2nc(C)ccc2C1=O
  -24%	40µM*
> CCOC1=C2CN(S(=O)(=O)c3ccc(C)cc3)[C@H](c3ccccc3)C[C@H]2n2c(=O)n(-c3ccccc3)c(=O)n2C1
  7%	-16%
> CCOC(=O)c1c(C)[nH]c(C(=O)OCC(=O)N(CC(C)C)C2CCS(=O)(=O)C2)c1C (configuration not stated)
  4%	-15%
> COc1ccc(S(=O)(=O)N(C)C[C@H]2Oc3ncc(C#CC4(O)CCCC4)cc3C(=O)N([C@@H](C)CO)C[C@@H]2C)cc1
  3%	-10%
> Cc1cc(C(=O)COC(=O)c2ccc(NC(=O)CC#N)cc2)c(C)n1CC(F)(F)F
  13%	36%[activator]
> CC(C)(C)OC(=O)N(CCc1ccccc1)Cc1ccccc1OCc1cccc(NC(=O)/C=C/c2ccccc2)c1
  4%	19%
> Cc1ccccc1CC(=O)N1CCC(CCC(=O)NC2CC2)CC1
  -5%	-16%
> CCc1nc2c(OCc3ccccc3)cccn2c1N(C)C(=O)c1ccc2c(c1)OCO2
  -27%	-8%
> c1ccc(NN=C(c2ccccc2)c2cccs2)cc1
  -14%	-15%
> Cc1cccc(NC(=O)CSCC(=O)Nc2cc(C(F)(F)F)ccc2N2CCOCC2)c1
  8%	-26%
> CC1(c2cccc(Br)c2)NC(=O)N(CC(=O)Nc2ccc(N3CCCCC3)cc2)C1=O (configuration not stated)
  -10%	-17%
> Brc1ccccc1-n1nnc(-c2cnc3ccccc3c2)n1
  -11%	3%
> O=C(NCc1ccccc1)C1c2ccccc2OCC(=O)N1CCCN1CCOCC1 (configuration not stated)
  -14%	-18%
> O=C(NCc1ccccc1)C(c1ccncc1)n1c(=O)c(-c2ccco2)nc2ccccc21 (configuration not stated)
  7%	0%
> CCCN(CCC)Cc1cc(=O)oc2ccc3ccccc3c12
  -15%	-1%
> CNc1cc(-c2cnn(CC(C)C)c2)ncn1
  -27%	44%[activator]
> OC[C@@H]1CN(Cc2ccco2)C[C@H](n2cnc3c(NC4CC4)ncnc32)O1
  3%	-9%
> O=C1c2c(-c3ccc(Br)cc3)noc2CCN1Cc1cn(Cc2ccccc2)nn1
  -1%	-21%
> Nc1ncnc2c1ncn2[C@@H]1O[C@H](CNC(=O)[C@H](N)Cc2cccnc2)[C@@H](O)[C@H]1O
  10%	-6%
> COc1cc(C)ccc1S(=O)(=O)NC(=O)C1(C)CCN1C(=O)Cc1ccc(C(C)(C)C)cc1 (configuration not stated)
  2%	-12%
> CC(=O)C1=C(O)C(=CC=Cc2ccccc2)OC1=O
  -17%	13%
> CNc1cccc(-c2ccccc2CO)n1
  -17%	-8%
> COc1ccc2c(c1)CCC1(C)CC(=O)C=C21 (configuration not stated)
  -15%	-14%
> CCCS(=O)(=O)NC(=O)C1(C)CCN(C(=O)c2c(-c3ccccc3)noc2C)C1 (configuration not stated)
  6%	3%
> COc1ccccc1Nc1cc(C)nc2c(C)cccc12
  -8%	0%
> O=C1NN=C2CCCCCCCCCCC12 (configuration not stated)
  5%	-4%
> COc1ncnc2c1ncn2CCCNCC(c1ccccc1)c1ccccc1
  -12%	-26%
> COc1ccc(C(=O)N(C)C(C)c2nccs2)cc1OC1CCN(C(C)=O)CC1 (configuration not stated)
  4%	36%[activator]
> COC(C[C@@H]1O[C@@H]1C(=O)[C@H](C)OCc1ccccc1)OC
  9%	-10%
> COc1ccc2ccc3cccc[n+]3c2c1
  -5%	0%
> CC(C)(C)c1nc2c(s1)CCc1onc(-c3ccc(Br)cc3)c1-2
  -3%	-23%
> O=C(Nc1c(-c2ccccc2)[nH][nH]c1=O)c1ccc(Br)cc1
  14%	-13%
> O=C(Nc1ccc(F)c(Cl)c1)c1cc(C2CCCN(C(=O)c3cccs3)C2)on1 (configuration not stated)
  -12%[18.4 µM]	-16%
> CCCCn1nnnc1C(c1ccnc2ccccc12)N1CCN(C/C=C/c2ccccc2)CC1 (configuration not stated)
  -15%	-15%
> O=C(CSc1nnc(COc2ccc(Cl)cc2)o1)N(c1ccccc1)C1CCS(=O)(=O)C1 (configuration not stated)
  19%	?
> COCCNC(=O)C1CCCN(C(=O)c2sc(-c3ccccc3)nc2C)CC1 (configuration not stated)
  17%	17%
> CCN(CC)C(=O)C1=C(C)N(CCCN2CCCC2=O)C(=O)C(CC(=O)NCCc2ccccn2)C1 (configuration not stated)
  2%	-19%
> C[C@@H]1CN([C@H](C)CO)C(=O)c2cc(C3=CCCCC3)cnc2O[C@@H]1CN(C)Cc1ccccc1C(=O)O
  7%	2%
> COc1ccc(OC)c(NC(=O)C2(C)CCN2Cc2cccc(OC)c2OC)c1 (configuration not stated)
  9%[18.4 µM]	?
> CC(=O)NC1(C)CCC2CC1C(C)=NC2(C)C (configuration not stated)
  0%	-6%
> Clc1cccc(CNc2ccn3nc(-c4ccccc4)cc3n2)c1
  ?	32%[activator]
> O=C(Nc1cccc2ccccc12)c1ccc2sc([C@H]3C[C@H](O)[C@@H](CO)O3)nc2c1
  -6%	0%
> Nc1nc2c(nnn2C2CC(O)C(CO)O2)c(=O)[nH]1 (configuration not stated)
  -11%[18.4 µM]	-6%
> C#CCN(Cc1ccco1)C(=O)c1cc(COc2cccc3cccnc23)on1
  -3%	-19%
> CC(C)S(=O)(=O)N1CCCC(c2cc(C(=O)NCc3ccccc3)no2)C1 (configuration not stated)
  2%[18.4 µM]	-11%
> CC(=O)c1cccc(-c2ccc3c(c2)C(C)(Cc2ccccc2C#N)C(=O)N3)c1 (configuration not stated)
  9%	-10%
> O=C(C[n+]1ccc(C(=O)c2ccccc2)cc1)Nc1cccc([N+](=O)[O-])c1
  -9%	0%
> CC1(C(=O)Nc2cnc3ccccc3c2)CCN1Cc1ccc(OC(F)(F)F)cc1 (configuration not stated)
  -11%	-13%
> CCCC[C@@H]1C[C@H]1[C@@H](NC(=O)c1ccco1)c1ccc(C(=O)OC)cc1
  8%	-15%
> CC1=C(C(=O)N(C(C)C)C(C)C)CC(CC(=O)NCc2ccco2)C(=O)N1CCCN1CCCC1=O (configuration not stated)
  7%	-10%
> COC(=O)c1ccccc1NN=Nc1ccccc1[N+](=O)[O-]
  15%	13%
> O=C(COC(=O)c1ccc2c(c1)OCCO2)NCc1ccc(Cl)cc1
  1%	-21%
> CC(C)c1ccc(CC(=O)N2CCC2(C)C(=O)NS(=O)(=O)c2ccc(F)cc2F)cc1 (configuration not stated)
  -6%	-23%

Next part:
Values run as follows: RE007 growth inh	StopGo reporter
> CC(=O)c1cccc(-c2ccc3c(=O)[nH]c(Nc4ccccc4)cc3c2)c1
  -1%	79%[activator]
> O=C(CN1CCNCC1)N1CCOCC1
  3%	-13%
> CCC(c1nnnn1-c1ccc2c(c1)OCCO2)N1CCN(c2ccccc2)CC1 (configuration not stated)
  -11%	?
> Cc1cccc(C)c1NC(=O)C1(C)CN(S(C)(=O)=O)CC(=O)N1C1CC1 (configuration not stated)
  -5%	-4%
> COc1ccc(CNCCCn2cnc3c(SC)ncnc32)cc1
  -5%	-7%
> COc1ccc(NC(=O)C(c2ccccc2)n2c(=O)c(-c3ccco3)nc3ccccc32)cc1 (configuration not stated)
  0%	8%
> COc1ccccc1C(=O)NNC(=O)CN(C)S(=O)(=O)c1ccc(Cl)cc1
  14%	-18%
> Cc1ccc(OCc2nc3ccccc3n2C(C(=O)NC(C)(C)C)c2ccccc2)cc1 (configuration not stated)
  0%	-4%
> COc1ccccc1-c1csc(Nc2ccc(Oc3ccccc3)cc2)n1
  1%	34%[activator]
> CCOC(=O)C1CCCN(C(=O)c2cc(-c3ccccc3)cs2)CC1 (configuration not stated)
  1%	18%
> COc1cc(C(=O)O)cc(OC)c1OC
  4%	-16%
> CN(CC(=O)Nc1ccc(F)cc1)C(=O)COC(=O)c1cc(Br)c(Br)s1
  -13%	-19%
> Cc1noc(C)c1S(=O)(=O)NC(=O)C1(C)CCN1C(=O)Cc1ccc(-c2ccccc2)cc1 (configuration not stated)
  11%	-24%
> CCCS(=O)(=O)NC(=O)C1(C)CCCN(C(=O)c2ccc3ccccc3c2)C1 (configuration not stated)
  -2%[18.4 µM]	-6%
> O=C(NCc1cccc(C(F)(F)F)c1)C1CC(c2ccccc2F)=NO1 (configuration not stated)
  -6%	-5%
> c1ccc(-c2ccc3c(c2)CNCc2cnnn2-3)cc1
  8%	14%
> OC[C@@H]1CN(Cc2ccc(F)cc2)C[C@H](n2cnc3c(NC4CCCC4)ncnc32)O1
  13%	-4%
> CC(C)Oc1cc(C(=O)N2CCC(N3CCCCC3)CC2)ccc1Nc1nnc(Cl)c(Nc2ccccc2S(C)(=O)=O)n1
  1%	-10%
> CCCCNC(=O)C(C#N)c1nc2ccccc2nc1N1CCN(Cc2ccc3c(c2)OCO3)CC1 (configuration not stated)
  -5%	-7%
> CC1(C(=O)NS(=O)(=O)C2CC2)CCCN(C(=O)c2ccc(F)cc2Cl)C1 (configuration not stated)
  -10%	-15%
> O=C(Nc1nnc([C@@H]2C[C@H](O)[C@@H](CO)O2)s1)c1ccccc1Cl
  5%[18.4 µM]	-7%
> CCc1ccc(/C=C2\SC(=S)N(CCCC(=O)N3CCCC3)C2=O)cc1
  8%	-4%
> CCN1C[C@@H]2[C@@H]3C(=O)N(Cc4ccccc4)C(=O)[C@@H]3[C@](Cc3ccccc3)(C1=O)N2C(=O)c1ccc(C(C)(C)C)cc1
  4%	-26%
> CCOC(=O)c1cccc(C2=C(CNC(=O)c3nccs3)[C@H]3CC[C@@H](C2)N3Cc2ccccc2)c1
  ?	-17%
> O=C(Nc1c(-c2ccc3c(c2)OCO3)[nH][nH]c1=O)c1ccc2c(c1)OCO2
  -1%	-21%
> O=C(COC(=O)c1ccc(F)cc1F)Nc1ccc2c(c1)OCO2
  -10%	12%
> O=C(NCCc1ccccc1)[C@@H]1CC=C[C@@H]2CCN(Cc3ccccc3)C(=O)[C@@H]21
  -7%	19%
> Cc1nc(SCC(=O)N2CCCCCC2)c2c(=O)n(C)c(=O)n(CC(C)C)c2n1
  1%	?
> O=C(Nc1nnc([C@@H]2C[C@H](O)[C@@H](CO)O2)s1)Nc1ccccc1F
  0%	36%[activator]
> COc1ccccc1Cc1c(-c2ccccc2)nc2ccc(Br)cn12
  -20%	23%

By substructure, those above containing a tert-butyl group.
Values run as follows: RE007 growth inh	StopGo reporter
> CC#CCN1c2ccccc2[C@]23C[C@@H](C(=O)OC)N(C(=O)NC(C)(C)C)C2=NC(C(=O)OC)=C(C(=O)OC)[C@H]13
  -6%	-13%
> CC(C)(C)OC(=O)N(CCc1ccccc1)Cc1ccccc1OCc1cccc(NC(=O)/C=C/c2ccccc2)c1
  4%	19%
> COc1cc(C)ccc1S(=O)(=O)NC(=O)C1(C)CCN1C(=O)Cc1ccc(C(C)(C)C)cc1 (configuration not stated)
  2%	-12%
> CC(C)(C)c1nc2c(s1)CCc1onc(-c3ccc(Br)cc3)c1-2
  -3%	-23%
> Cc1ccc(OCc2nc3ccccc3n2C(C(=O)NC(C)(C)C)c2ccccc2)cc1 (configuration not stated)
  0%	-4%
> CCN1C[C@@H]2[C@@H]3C(=O)N(Cc4ccccc4)C(=O)[C@@H]3[C@](Cc3ccccc3)(C1=O)N2C(=O)c1ccc(C(C)(C)C)cc1
  4%	-26%

Following part:
Values run as follows: RE007 growth inh	StopGo reporter
> CC(C)(C)OC(=O)C1=CC[C@@H](c2ccc(Cl)c(Cl)c2)N(S(=O)(=O)c2ccc(F)cc2)[C@H]1c1cccc(F)c1
  4%	?
> COCc1ccc(CN2CCC(n3nccc3NC(=O)c3ccc4c(c3)OCO4)CC2)o1
  -20%	0%
> O=C(Nc1ccccc1)C1=C[C@H](c2ccc(C(F)(F)F)cc2)C[C@H](OCCCCO)O1
  6%	36%[activator]
> O=C1NC[C@H](CCCCN2C[C@H](Cc3ccccc3)N(Cc3ccccc3)C(=O)C2=O)N(CCc2ccccc2)C1=O
  -5%	8%
> CC(=O)Nc1cccc(-c2csc(C(O)c3ccc(F)c(F)c3)n2)c1 (configuration not stated)
  14%	?
> O=c1c2ccccc2[nH]c(=S)n1-c1cccc(C(F)(F)F)c1
  9%	24%
> Cc1ccc(F)c(S(=O)(=O)NC(=O)C2(C)CCN2C(=O)Cc2ccccc2Cl)c1 (configuration not stated)
  8%[18.4 µM]	4%
> COc1cc(NC(=O)Nc2cccn3nc(COCCO)nc23)cc(OC)c1OC
  -2%[18.4 µM]	-14%
> C[C@H](CO)N1C[C@H](C)[C@@H](CN(C)S(=O)(=O)c2ccc(Oc3ccccc3)nc2)OCc2cn(nn2)CCCC1=O
  -13%	-8%
